# High-throughput results (PubChem)
# VACV E9 pol inh – vaccinia E9 polymerase processive synthesis inhibition; actives 0.94% (n = 46,000); in vitro processive DNA synthesis, absorbance read-out; hits give low values; some inactives read as strong as hits; AID 493162; normalized absorbance, % (test concentration not listed);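 active = replicate mean up to 90% and picked by the depositor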;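 note: 100% = median of the test wells of a plate; 100 nL library stock went into each well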
# Numbers without * were called inactive. Some of the compounds tested, so the mix of outcomes need not match the whole.
SMILES,VACV E9 pol inh
COC(=O)NC(Nc1cccc(C(F)(F)F)c1)C(=O)c1ccccc1 (stereo unspecified),95.1
O=C(COC(=O)c1ccccc1-c1ccccc1)c1ccccc1,101.2
CCOc1ccc2nc(N3CCCC(C(=O)Nc4ccc(C)cc4Cl)C3)sc2c1 (stereo unspecified),105.3
CSCc1c(C)nn(C(=O)N(C)C)c1C,97.3
Cc1ccc(C(=O)c2ccccc2C(=O)OCC(N)=O)cc1,96.5
COc1cccc(C(=O)Nc2ccc(-c3cn4ccccc4n3)cc2)c1,99.7
Cc1ccc(-c2nn(C)c(=O)c3ccccc23)cc1CNS(C)(=O)=O,97.6
COc1cccc(CN2CCN(C(C)C)CC2)c1,105.5
COC(=O)c1cnn2c(C)c(Cc3ccccc3)c(C)nc12,99.6
CCCCC/C=C\C/C=C\C/C=C\C/C=C\CCCC(=O)O,99.3
Nc1ccc(C(=O)Nc2ccc(O)c(-c3nc4ccccc4o3)c2)cc1,99.4
COC(=O)c1ccc2nc(NC(=O)Cc3ccccc3)sc2c1,111.8
Cc1ccc2cccc(OC(=O)N3CCOCC3)c2n1,97.8
COc1cccc(C(=O)NCc2ccc3[nH]c4c(c3c2)CCCC4)c1,101.7
Cc1cc(NS(=O)(=O)c2ccc(N3C(=O)C=CC3=O)cc2)no1,73.0

# Shown with each value named: 4 of the compounds above.
Cc1ccc(-c2nn(C)c(=O)c3ccccc23)cc1CNS(C)(=O)=O
  VACV E9 pol inh = 97.6
COc1cccc(CN2CCN(C(C)C)CC2)c1
  VACV E9 pol inh = 105.5
COC(=O)c1cnn2c(C)c(Cc3ccccc3)c(C)nc12
  VACV E9 pol inh = 99.6
CCCCC/C=C\C/C=C\C/C=C\C/C=C\CCCC(=O)O
  VACV E9 pol inh = 99.3

# (further entries)
SMILES,VACV E9 pol inh
CC1(C)CC(=O)C2=C(C1)OC(c1ccccc1)(C(C)(C)C)NC2=O (stereo unspecified),109.8
O=C(O)CC1C(=O)N(c2ccccc2)C(=S)N1c1ccccc1 (stereo unspecified),99.6
N#CC(C#N)=C(N)/C(C#N)=C/c1c[nH]c2ccccc12,93.8
O=C(NC1CC1)C1=COCCO1,101.8
c1ccc(CNC2=NCCCC2)cc1,99.8
O=C(COc1ccc(F)cc1)NCCN1CCOCC1,95.7
O=C(O)c1c2c(nc3ccccc13)CSc1ccc(Cl)cc1-2,100.2
O=C(O)CC1(CC(=O)NCc2ccccn2)CCCCC1,102.1
O=C(Nc1ccc(C(F)(F)F)nc1OCc1ccccc1)c1ccccc1,99.9
O=C(COc1ccccc1Cl)N1CCCc2ccccc21,100.8
CCN(CC)C(=O)c1cc2sc3ccccc3c2s1,106.7
Cc1[nH]c2ccccc2c1SCCNC(=O)/C=C/c1ccccc1,100.3
COc1ccc(OCC(=O)Nc2ccncc2)cc1,89.9
O=C(CSc1nnc2n1CCCCC2)Nc1ccccc1C(F)(F)F,100.1
COc1ccc(C(=O)CCC(=O)NC2=NCCS2)cc1,93.1
O=C(CCCN1C(=O)/C(=C/c2cccs2)SC1=S)Nc1cccc(C(F)(F)F)c1,100.4
CNC(=O)Nc1cc(C(C)(C)C)no1,102.0
NC(=O)C12CCCC(Br)(CCC1)C2,99.7
C=CCSc1nc2sc3c(c2c(=O)[nH]1)CCCC3,97.6
Fc1ccc(NC(=S)Nc2cc(C(F)(F)F)ccc2N2CCCC2)cc1Cl,106.4
C=CCn1c(SCc2nc3ccccc3[nH]2)nnc1-c1ccco1,92.7
CN1C(=O)C(O)N(c2ccccc2)C1=O (stereo unspecified),100.4
CC(C)CCNC(=O)c1cn(C)c2ccc(S(=O)(=O)N3CCC(C)CC3)cc2c1=O,103.0
Cc1cc(=O)oc2c3c(ccc12)O/C(=C/C=C/c1ccccc1)C3=O,100.2
Cc1ccc(NC(=S)NCC2CCCO2)cc1 (stereo unspecified),100.2
CCc1ccc(-c2nn(-c3ccccc3)c(=S)c3ccccc23)cc1,100.8
CC(=O)Nc1ccccc1OCC(=O)N(C(C)C)C(C)C,100.0
O=C(CSC1CCCCC1)N1CCOCC1,99.0
O=C(O)c1ccc(S(=O)(=O)N(Cc2ccco2)CC2CCCO2)cc1 (stereo unspecified),100.8
O=c1c(Cl)c(NCc2ccco2)cnn1-c1ccccc1,98.4
O=C(Nc1cccc(F)c1)c1cccc2c1C(=O)N(Cc1cccnc1)C2,104.5
Cc1c(-c2ccnn2C(=O)Nc2ccccc2)sc2ccccc12,91.1
O=C(CN1C(=O)CSC1=O)Nc1ccccc1N1CCOCC1,105.9
C=C(C)C(=O)Oc1ccc(N2C(=O)C3C4C=CC(C4)C3C2=O)cc1 (stereo unspecified),98.5
CC(NC(=O)c1ccccc1)c1ccccc1 (stereo unspecified),103.7
COC(=O)C(N)c1ccccc1 (stereo unspecified),101.2
Cc1cccc(N2CCC(N=CN3CCOCC3)=N2)c1,101.3
Oc1c(I)cc(I)c2cccnc12,95.1
CC[C@@]1(C)N[C@H](C(=O)O)CS1,98.6
CCCn1c(C2CC(=O)N(Cc3ccccc3)C2)nc2ccccc21 (stereo unspecified),99.5
CCC(N)Cc1c[nH]c2ccccc12 (stereo unspecified),100.9
O=C(O)/C=C\C(=O)Nc1ccc(Cl)c(Cl)c1,95.5
O=c1[nH][nH]c(=O)c2c(NS(=O)(=O)c3ccccc3)cccc12,96.2
CN(C)c1cc(O)c(C(=S)Nc2ccccc2)c(N(C)C)c1,95.5
CCOc1ccc(NC(NC(=O)c2cccs2)C(=O)c2ccccc2)cc1 (stereo unspecified),100.4

# Brought forward from above: 7 compounds, followed by the next part.
SMILES,VACV E9 pol inh
CC[C@@]1(C)N[C@H](C(=O)O)CS1,98.6
CCCn1c(C2CC(=O)N(Cc3ccccc3)C2)nc2ccccc21 (stereo unspecified),99.5
CCC(N)Cc1c[nH]c2ccccc12 (stereo unspecified),100.9
O=C(O)/C=C\C(=O)Nc1ccc(Cl)c(Cl)c1,95.5
O=c1[nH][nH]c(=O)c2c(NS(=O)(=O)c3ccccc3)cccc12,96.2
CN(C)c1cc(O)c(C(=S)Nc2ccccc2)c(N(C)C)c1,95.5
CCOc1ccc(NC(NC(=O)c2cccs2)C(=O)c2ccccc2)cc1 (stereo unspecified),100.4
CC(=Nc1ccccc1C(F)(F)F)c1cccs1,98.6
CC(C)NS(=O)(=O)c1ccc(OCC(=O)N2CCC(Cc3ccccc3)CC2)cc1,99.3
O=C(NCc1ccc(S(=O)(=O)NCCN2CCCC2)s1)c1ccc(Cl)cc1,103.5
Cc1onc(-c2c(Cl)cccc2Cl)c1C(O)c1ccc(F)cc1 (stereo unspecified),109.0
O=C(CSc1ccc2nnc(-c3ccccn3)n2n1)c1ccccc1,96.4
CCCSc1nnc(CNC(=O)C23CC4CC(CC(C4)C2)C3)n1CC,101.2
N#CC(C#N)=C(N)CSc1ccc(Cl)cc1,109.6
CCOC(=O)c1sc(-c2ccccc2)nc1OCc1c(Cl)cccc1Cl,96.9
Cc1cccc(N2CCN(C(=O)C(NS(=O)(=O)c3cccc4nsnc34)C(C)C)CC2C)c1 (stereo unspecified),105.4
NNC(=O)CNc1c(-c2ccsc2)nc2ccccn12,98.1
O=C(Sc1cccc2cccnc12)c1ccccc1,96.9
CC1CCCC(C)N1C(=O)COC(=O)CCC1CCCC1 (stereo unspecified),104.5
N#Cc1cccc(NC(=O)COC(=O)CCC2CCCC2)c1,101.2
Cc1ccc(C2CC(=O)C=C(Nc3n[nH]c(C)c3-c3ccccc3)C2)cc1 (stereo unspecified),92.8
Cc1ccc(C(=O)OCC(=O)N2CCC(Cc3ccccc3)CC2)s1,101.6
O=C(COc1ccccc1)c1ccc(O)cc1O,100.2
N#C/C(=C\c1ccc(C(F)(F)F)cc1)c1c[nH]c2ccccc12,98.5
Fc1cc(F)c(NC(=S)N2CCOCC2)c(F)c1,110.5
COc1ccccc1CCNS(=O)(=O)c1ccc(C(=O)O)n1C,105.3
CC(C)C(C(=O)O)n1c(O)c(C2=c3ccccc3=NC2=O)sc1=S (stereo unspecified),102.0
O=C1c2ccccc2C(=O)N1CC(F)(F)F,100.4
CCOC(=O)c1cnc2c(OC)cccc2c1NC1CCCCC1,80.6
O=S(=O)(c1csc2ccccc12)N1CCOCC1,117.7
CC(Oc1ccc2c3c(c(=O)oc2c1)CCC3)C(=O)c1ccccc1 (stereo unspecified),94.9
CCN(CC)c1ncnc2c1[nH]c1ccc(C)cc12,99.9
COc1cc(C(=O)NCc2ccccc2)cc(OC)c1OC,100.5
COc1ccc(-c2cc(N)nc(N)n2)cc1,92.5
COC(=O)c1cccc(CSc2nc3ccccc3[nH]2)c1,92.5
CC(C)n1c(=O)c2sccc2n2c(=S)sc(-c3ccccc3)c12,99.0
Cc1[nH]c2ccc(CN3C(=O)c4ccccc4C3=O)cc2c1C,100.4
Cc1cc2c(cc1C)CSC(c1ccc(N(C)CCC#N)cc1)SC2,102.0
O=C(Cn1cc(C(=O)C2CC2)c2ccccc21)NCc1cccs1,107.8
O=C(NC1CCCC1)c1ccc(-n2c(-c3ccccc3)cc3c2CCCC3)cc1,99.7
O=C(Nc1cccc(-c2nc3ccccc3c(=O)o2)c1)C1CCCCC1,99.9
CC(C)(C)C1=CC(=O)C(C(C)(C)C)=CC1=O,100.6
Cc1cc(C)c(C#N)c(Sc2ncnc3c2sc2nc(C)cc(C)c23)n1,78.6
Cc1nc2sc(C(N)=O)c(N)c2c(-c2ccccc2)c1C(=O)Nc1ccccc1,101.8
O=S(=O)(Cc1ccc(Cl)cc1)N1CCc2ccccc2C1,107.3
CCOC(=O)c1sc2nc3c(c(-c4ccc(OC)cc4)c2c1N)CCC3,97.7
COc1ccc(/C=C/C(=O)O)cc1S(=O)(=O)N1CCc2ccccc2C1,99.9
O=C(OCC(=O)N1CCCCCC1)c1ccc(Cl)nc1,106.1
Cc1cc(Br)ccc1SCC(=O)OCC(=O)NC1CCCC1,99.7
O=c1c(F)cn(C2CCCO2)c(=O)n1Cc1cccc2ccccc12 (stereo unspecified),88.2
Cc1nc2ccc(CO)cc2s1,97.6
COc1ccc(-c2nc3ccccc3s2)cc1,95.4
Cc1cc(C(=O)NCC2COc3ccccc3O2)nn1C (stereo unspecified),101.1
Cc1cccc(-n2ncc3c2ncn2nc(COc4c(C)cccc4C)nc32)c1,99.9
O=C(Nc1ccc(N2CCCCC2)cc1)c1ccc(Cl)cc1Cl,99.4
CSC(=NC=[N+](C)C)Nc1ccccc1,106.8
CC(C)NC(=O)c1cccn2c(=O)c3c4c(sc3nc12)CCCC4,103.7
CCCOc1ccc(/C=C/C(=O)Nc2ncn[nH]2)cc1OC,99.3
Cc1ccc(C2=N/C(=C\c3ccco3)C(=O)O2)cc1,99.8
CC1CN(C/C(=N/O)C23CC4CC(CC(C4)C2)C3)CC(C)O1 (stereo unspecified),96.5
CSC1=NCCN1S(=O)(=O)c1ccc(Br)cc1,109.6
COC(=O)c1ccc(NCC(=O)N2CCCCCC2)cc1,95.1
O=c1oc(-c2ccccc2)nc2ccsc12,106.5
O=C(O)C1CC(=O)N(Cc2ccccc2)C1 (stereo unspecified),103.2
Cc1ccccc1NC1=NCC(C)(C)S1,100.5
CC(C)NC(=O)CC1Nc2ccccc2NC1=O (stereo unspecified),103.4
CC(=O)OCC(=O)[C@@]1(O)CCC2C3CCC4=CC(=O)CC[C@]4(C)C3C(=O)C[C@@]21C (stereo partly specified),93.4

# New compounds follow.
SMILES,VACV E9 pol inh
CCOC(=O)N1CCN(CC(O)COc2ccc3c(c2)CCC3)CC1 (stereo unspecified),101.0
CC[C@@]1(O)C[C@H](OC2CC(N(C)C)C(OC3CC(O)C(OC4CCC(=O)C(C)O4)C(C)O3)C(C)O2)c2c(cc3c(c2O)C(=O)c2c(O)cccc2C3=O)[C@H]1C(=O)OC (stereo partly specified),37.6*
COC(=O)CC(N)c1cccc2ccccc12 (stereo unspecified),102.9
CC(C)(C)c1ccc(OCNC(=S)NC(=O)c2cncc(Br)c2)cc1,100.0
Cc1ccc(-n2c(O)c(C=NCCC3=CCCCC3)c(=O)[nH]c2=O)cc1,98.5
O=C(CCc1nc2cccnc2n1Cc1ccccc1)N1CCCCC1,91.7
c1ccc(-c2ccnc(-c3cc(-c4ccccc4)ccn3)c2)cc1,98.8
COc1ccc2cc(-c3csc(-c4cccnc4)n3)ccc2c1,98.0
CC1CCCC(C)N1C(=O)COC(=O)c1ccc(O)cc1 (stereo unspecified),101.0
CC1CCCC(C)N1C(=O)c1cc(=O)c2ccccc2o1 (stereo unspecified),87.8
Cc1c(-c2ccccc2)oc2c(C(=O)O)cccc2c1=O,96.7
CC1CCCC(NC(=O)COC(=O)c2ccccc2O)C1C (stereo unspecified),103.1
CCC(C)NC(=O)CSc1cc(C)nc2c(-c3ccccc3OC)c(C)nn12 (stereo unspecified),96.0
CCOc1ccc(N=CC2C(Oc3ccc(Cl)cc3)C(=O)N2c2ccc(OCC)cc2)cc1 (stereo unspecified),105.0
Cc1ncc(NS(=O)(=O)c2ccc(NC(=O)NC3CCCCC3)cc2)c(C)n1,99.8
CC(=O)n1c2ccccc2c2c(C#N)c(N3CCCCC3)sc21,99.3
Cc1cc(C)n(C(=O)C2CCCN2S(=O)(=O)c2ccccc2)n1 (stereo unspecified),100.5
CCOC(=O)CNc1n[nH]c(N)n1,99.9
Nc1cc(C(F)(F)F)ccc1OCc1ccccc1,99.1
Nc1cc(-c2ccccc2)nc2ccccc12,93.0
O=C(Nc1ccc2nn(-c3ccccc3)nc2c1)C(F)(F)F,100.6
CC1=C(C)C2C(=O)N=C(c3ccc(-c4ccc(C(=O)O)cc4)o3)N=C2S1 (stereo unspecified),90.2
CCc1cccc2c3c([nH]c12)C(CC)(CC(=O)O)OCC3 (stereo unspecified),100.3
Cc1ccc2nc(NC(=O)c3cccs3)sc2c1,97.0
CCCNC(=O)CN1C(=O)COc2ccccc21,99.8
O=C1/C(=C/c2ccc(-c3nn[nH]n3)cc2)C(c2ccccc2)Oc2ccccc21 (stereo unspecified),82.3
Cc1c(C(=O)Nc2ccccc2)cc(-c2ccccc2)n1CCCN1CCOCC1,99.8
COc1ccccc1C(=O)NCCCc1nc2ccccc2[nH]1,104.7
CC1(C)CC(=O)C=C(Nc2ccc(N)cc2)C1,107.5
